HSD17B inh = qHTS Assay for Inhibitors of HSD17B4, hydroxysteroid (17-beta) dehydrogenase 4 | recombinant HSD17B10, NADH fluorescence kinetic; many of its hits are not listed in these tables | Potency, µM (doses to about 57.1 µM), without a hit: at the highest dose activity change, negative = inhibition, hits mostly inhibitors | 75,000 tested, 7.6% active; active = well fitted inhibition curve with a large enough effect; inconclusive = small, poorly fitted or top-dose-only effect; inactive = no such curve, though single readings can be large or run the other way;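 also: the protocol describes HADH2 (HSD17B10) and not the HSD17B4 of the title; nearly all actives have a fitted effect of over 70% in size; most hits overshoot -100% by far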
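His-tagged E. coli-expressed HADH2 at 20 nM in 100 mM Tris-HCl pH 9.0 with 0.01 % Tween-20, preincubated 15 min with compound at room temperature. Reaction with 1 mM NAD+ and 90 uM beta-hydroxybutyryl coenzyme A; NADH fluorescence (360/450 nm) read kinetically over 4 min, last minus first point.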
The depositor's hits bear a star; ? = inconclusive; [ ] = another dose, or the depositor's remark. % is scaled to controls: 0 for no effect and ±100 for the full control effect; potency is read from the fitted curve at half-maximal effect.

SMILES | HSD17B inh
CC(NC(=O)CC12CC3CC(CC(C3)C1)C2)C(=O)O (stereo not drawn) | 4%
CCOc1cccc(C(=O)Nc2ccccc2OC(F)F)c1 | 6%
CCN(c1c(C)n(C)n(-c2ccccc2)c1=O)S(C)(=O)=O | ?
CCOc1cccc(C(=O)Nc2ccc(N(CC)CC)cc2)c1 | -19%
COc1ccc(O)c(-c2cc(-c3cccc(Br)c3)n[nH]2)c1 | -11%
CCOC(=O)c1cccc(NC(=O)C2CCN(S(=O)(=O)c3cccs3)CC2)c1 | -9%
CCC/C=C(\CCC)C(NC(=O)C(C)(C)C)c1ccc(C(=O)OC)cc1 (stereo not drawn) | -4%
CCOC(=O)N1CCN(Cc2cccs2)CC1 | 0%
CC1CCN(CCCNC(=O)c2cn(C)c3ccc(S(=O)(=O)N4CCCC4)cc3c2=O)CC1 | -1%
O=C(Cn1nc(-c2ccccc2)c2ccccc2c1=O)Nc1ccc2c(c1)nc1n2CCOC1 | ?
O=C(Nc1ccc2c(c1)OCO2)c1cccc2c1C(=O)N(C1CCCCC1)C2 | ?
Cc1nn(C)cc1C(N)=O | 6%
Cc1cc(C)n(-c2nc3ccccc3c(=O)n2OCC(=O)OCc2ccccc2)n1 | -10%
COc1ccc(S(=O)(=O)N(C)CC(=O)NCCC2=CCCCC2)cc1 | 2%
c1ccc(-c2csc3ncnc(NCCN4CCOCC4)c23)cc1 | 17%
CCOC(=O)N1CCN(C(=O)CN(c2cc(C(F)(F)F)ccc2Cl)S(C)(=O)=O)CC1 | -9%
O=C(NCCC1=CCCCC1)C1COc2ccccc2O1 (stereo not drawn) | -2%
Cc1ccc(C)c2[nH]c(=O)c(CN(Cc3ccco3)C(=O)Nc3ccccc3)cc12 | -3%
O=C(CSc1nnc2scc(-c3ccccc3)n12)N1CCCc2ccccc21 | -6%
CCOc1ccccc1C1CC(c2ccccc2)Nc2nc(N)nn21 (stereo not drawn) | ?

No new results follow: 5 of the compounds above.
SMILES | HSD17B inh
CCOC(=O)N1CCN(Cc2cccs2)CC1 | 0%
CC1CCN(CCCNC(=O)c2cn(C)c3ccc(S(=O)(=O)N4CCCC4)cc3c2=O)CC1 | -1%
O=C(Cn1nc(-c2ccccc2)c2ccccc2c1=O)Nc1ccc2c(c1)nc1n2CCOC1 | ?
O=C(Nc1ccc2c(c1)OCO2)c1cccc2c1C(=O)N(C1CCCCC1)C2 | ?
Cc1nn(C)cc1C(N)=O | 6%

Back to the main list with the 3 entries that preceded the break.
SMILES | HSD17B inh
Cc1ccc(C)c2[nH]c(=O)c(CN(Cc3ccco3)C(=O)Nc3ccccc3)cc12 | -3%
O=C(CSc1nnc2scc(-c3ccccc3)n12)N1CCCc2ccccc21 | -6%
CCOc1ccccc1C1CC(c2ccccc2)Nc2nc(N)nn21 (stereo not drawn) | ?
COCc1nnc(SCC(=O)NCc2ccccc2)n1-c1ccccc1 | 6%
CCCCCCn1c(CN2CCN(C(=O)OCC)CC2)nc2c1c(=O)n(C)c(=O)n2C | 24%
Cc1ccc(-c2nc(CSCC(=O)NCc3cccnc3)c(C)o2)cc1 | -3%
Cc1c(C(=O)O)oc2ccc(S(=O)(=O)NCCC3=CCCCC3)cc12 | -8%
Cc1c(C(=O)NCc2cccnc2)oc2ccc(S(=O)(=O)N3CCCCC3)cc12 | -3%
Cc1cnc(C(=O)Nc2ccccc2-n2cccc2)cn1 | 7%
Cc1ccccc1-n1nnnc1SCc1csc(-c2ccccc2)n1 | ?
O=C(CN(C(=O)CCC(=O)Nc1ccccn1)c1ccc2c(c1)OCCO2)NCCc1ccccc1 | 5%
Cc1cccc(Cn2c(N3CCCCC3C)nc3c2c(=O)[nH]c(=O)n3C)c1 (stereo not drawn) | 11%
Cc1onc(-c2ccccc2Cl)c1C(=O)Nc1ccc2c(c1)OCO2 | -1%
CCOC(=O)c1c(C)c(C(=O)Nc2ccc3c(c2)OCO3)c(C)n1C | -3%
COc1ccc(CC(=O)NCc2cccs2)cc1 | 11%
CN(C)S(=O)(=O)c1ccc(C(=O)Nc2nnc(Cc3ccccc3)s2)cc1 | 1%
O=C(O[C@@H]1Cc2c(O)cc(O)cc2OC1c1ccc(O)c(O)c1)c1cc(O)c(O)c(O)c1 (stereo partly drawn) | 13µM*
O=C(c1ccc(NS(=O)(=O)c2cccs2)cc1)N1CCCCC1 | 0%
COc1cc2c(CCNC(C)=O)c[nH]c2cc1O | ?
CCN1CCCC1CNC(=O)Cn1cccc1C(=O)c1ccccc1C (stereo not drawn) | -16%
COc1ccccc1NC(=O)COC(=O)CNC(=O)c1ccc(OC)c(OC)c1 | 0%
CCc1ccc(S(=O)(=O)c2n[nH]n3c2nc(=O)c2ccccc23)cc1 | 32µM*
N#Cc1nc(-c2ccco2)oc1N1CCCC1 | 25µM*
CCOC(=O)c1ccccc1NS(=O)(=O)c1ccc(S(=O)(=O)N2CCCC2)cc1 | -2%
COC(=O)c1[nH]c(C)c(/C(O)=C2\C(=O)C(=O)N(CCN(C)C)C2c2ccc(OC)cc2)c1C (stereo not drawn) | -4%
Cc1cccc2cc(CN(Cc3nnnn3C3CCCC3)C3CCCCC3)c(=O)[nH]c12 | -4%
CC(C(=O)Nc1ccccc1F)N1C(=O)c2ccccc2C1=O (stereo not drawn) | 4%
COc1cc(S(=O)(=O)NCC2CCCO2)c(OC)cc1Cl (stereo not drawn) | 11%
O=C(NCCN1CCOCC1)c1cccs1 | 12%
CCOC(=O)N1CCC(N2C(=O)c3ccccc3C2Nc2ccc3c(C)cc(=O)oc3c2)CC1 (stereo not drawn) | 3.2µM*
CNC(=O)c1nnc(Cc2ccc(F)cc2)o1 | 2%
CCOC(=O)c1sc(NC(=O)CSc2ncn[nH]2)c(C#N)c1C | -7%
CCCn1cc(S(=O)(=O)CC(=O)Nc2ccc(OCC)cc2)c2ccccc21 | -8%
CC(=O)NCCc1cc2cc(C)c(C)cc2[nH]c1=O | 32µM*
Cc1csc(NC(=O)c2nc(-c3ccccc3)n(-c3ccccc3)n2)n1 | 2%
Cc1csc(NC(=O)C2CCCCC2C(=O)O)n1 (stereo not drawn) | -2%
CCn1c(=O)c2cc(C(=O)NCc3cccs3)sc2c2ccccc21 | 16µM*
COc1ccc(CCNC(=O)CN(c2ccccc2OC)S(C)(=O)=O)cc1OC | 1%
O/N=C(\Cc1cscn1)c1ccc(O)cc1O | -3%
O=[N+]([O-])c1ccccc1Nc1ccccc1 | -6%
NC(=O)c1cn(-c2ccccc2)nc1-c1cccnc1 | -9%
O=C1NC2CCCCC2NC1CC(=O)N1CCN(c2ccccc2)CC1 (stereo not drawn) | 3%
O=C1CN(C(=O)c2ccccc2F)c2ccccc2N1 | 3%
COC(=O)c1c(NC(=O)CSc2nnc(-c3cccnc3)n2Cc2ccco2)sc(C)c1C | -3%
O=C(Cn1cnc2ccccc2c1=O)Nc1ccc2c(c1)CCC2 | -12%
CCCn1[nH]cc(SC)c(=O)c1=O | 5%
O=C(c1cc2c(s1)-c1ccccc1OC2)N1CCN(c2ccccn2)CC1 | 32µM*
Cc1cc2cc(CN(Cc3ccc4c(c3)OCO4)C(=O)c3cnccn3)c3nnnn3c2cc1C | -15%
O=C(CCS(=O)(=O)c1cccc2nonc12)NCCc1ccccc1 | -12%
O=C(Nc1sc2c(c1C(=O)NC1CCCCC1)CCC2)c1ccco1 | 10µM*
O=C(CSc1nnc(-c2ccco2)n1-c1ccccc1)N1CCN(C(=O)c2ccco2)CC1 | -2%
CCn1ccc(C(=O)Oc2ccc(C(C)C)cc2)n1 | -5%
Cc1noc(C)c1S(=O)(=O)Nc1ccc(C(=O)O)cc1 | 6%
Cc1ccc(Nc2cc(C)nn2-c2nc(C)cc(=O)[nH]2)cc1 | 4%
COc1ccc(C2C(C(=O)N3CCCCC3)c3ccccc3C(=O)N2C)cc1 (stereo not drawn) | 3%
CCc1c(C)nc(N)n2c(SCC(=O)N3CCCC(C)C3)nnc12 (stereo not drawn) | -3%
CCN1C(=O)c2ccccc2Sc2ccc(C(=O)NCCN3CCOCC3)cc21 | 1%
COC(=O)c1[nH]c2ccc(C)cc2c1NC(=O)C1=COCCO1 | -23%
CN1C(=O)c2oc3ccccc3c(=O)c2C1c1ccncc1 (stereo not drawn) | 2%
Cc1cc(-c2csc(NC(=O)c3ccc(=O)n(C)n3)n2)c(C)n1CC1CCCO1 (stereo not drawn) | -29%
Nc1ccc(Cl)c(-c2nc3ncccc3o2)c1 | -4%
CN(C)C(=O)c1ccc(-c2nccc(Nc3ccc(F)cc3)n2)cc1 | 3%
CCCc1cc(C(=O)N2CCN(C(c3ccccc3)c3ccccc3)CC2)no1 | -7%

5 compounds out of the list, ordered by length of the SMILES, smallest number first.
SMILES | HSD17B inh
CCn1ccc(C(=O)Oc2ccc(C(C)C)cc2)n1 | -5%
CN1C(=O)c2oc3ccccc3c(=O)c2C1c1ccncc1 (stereo not drawn) | 2%
O=C(Cn1cnc2ccccc2c1=O)Nc1ccc2c(c1)CCC2 | -12%
O=C(CCS(=O)(=O)c1cccc2nonc12)NCCc1ccccc1 | -12%
CCc1c(C)nc(N)n2c(SCC(=O)N3CCCC(C)C3)nnc12 (stereo not drawn) | -3%

(continued)
SMILES | HSD17B inh
O=C(CCN1C(=O)COc2ccccc21)NCCN1CCN(c2cccc(Cl)c2)CC1 | 12%
N#CCCN(Cc1cccnc1)C(=O)c1ccc(S(=O)(=O)N2CCOCC2)cc1 | -1%
O=C(NCc1ccco1)c1csc2c1CCCCC2 | -5%
CC1CC(C)CN(CCCNC(=O)C2CCN(S(=O)(=O)N3CCCCC3)CC2)C1 (stereo not drawn) | 9%
CC(C)CN1CC2(CCN(C(=O)c3cccc(F)c3)CC2)C1 | 4%
Cc1ccc2c(CC(=O)OC3CCOC3=O)coc2c1 (stereo not drawn) | 9%
C=CCC1(c2ccccc2)Oc2ccc(C)cc2-c2nc3cc(Cl)c(Cl)cc3nc21 (stereo not drawn) | -1%[11.4 µM]
CC(C)C12CCC(C(=O)O)C(C1)C(=O)O2 (stereo not drawn) | 5%
CC1CCCC(NC(=O)c2ccc(CNc3c(N4CCCC4)c(=O)c3=O)cc2)C1C (stereo not drawn) | -7%
CC1CC(C)CN(CC(C)(C)NS(=O)(=O)c2ccccc2)C1 (stereo not drawn) | 9%
Cc1ccc(-n2ncc(C(=O)N3CCc4ccccc4C3)c2NC(=O)c2ccco2)cc1C | -6%
O=C1C2CCCN2C(c2ccccc2)N1c1cccc(Cl)c1 (stereo not drawn) | 7%
O=C(CN1CCN(CCOCCO)CC1)N1c2ccccc2Sc2ccc(Cl)cc21 | -2%
O=C(CN1CCN(c2ccc(Cl)cc2)CC1)Nc1ccc(F)cc1 | -5%
CC(=O)c1cc2c(cc1NC(=O)CCc1ccccc1)OCO2 | ?
CC1(C)CC(=O)C(C=NCCc2ccc(S(N)(=O)=O)cc2)=C(O)C1 | 12%
CC1S/C(=C(\C#N)C(N)=O)N(c2ccc(F)cc2)C1=O (stereo not drawn) | -16%
Cn1c(=O)[nH]c(=O)c2c1nc(CN1CCN(c3cccc(Cl)c3)CC1)n2CCN1CCOCC1 | 2%
COC(=O)c1ccccc1NC(=O)Cn1cnc2cc(C)c(C)cc21 | -12%
COc1ccc(C2OC(=O)CC2C(=O)NC2CCCCCC2)cc1OC (stereo not drawn) | 3%

Given as tab-separated lines: part of the list above
SMILES	HSD17B inh
CN(C)S(=O)(=O)c1ccc(C(=O)Nc2nnc(Cc3ccccc3)s2)cc1	1%
O=C(O[C@@H]1Cc2c(O)cc(O)cc2OC1c1ccc(O)c(O)c1)c1cc(O)c(O)c(O)c1 (stereo partly drawn)	13µM*
O=C(c1ccc(NS(=O)(=O)c2cccs2)cc1)N1CCCCC1	0%
COc1cc2c(CCNC(C)=O)c[nH]c2cc1O	?

Next part.
SMILES | HSD17B inh
COc1cc(C(=O)NCc2ccco2)cc(OC)c1OC | -21%
COc1ccc(S(=O)(=O)N(C)c2ccc(C(=O)N3CCC(C(N)=O)CC3)cc2)cc1 | 11%
CN1CCN(c2ccc(Cl)cc2NS(=O)(=O)c2ccccc2Cl)CC1 | -22%
COCCOC(=O)c1c(C)n(C)c2ccc(OC(=O)c3cccs3)cc12 | -5%
COc1ccc(C2c3sc(=O)[nH]c3SC3C(=O)N(c4ccccc4)C(=O)C32)cc1 (stereo not drawn) | ?
COC(=O)c1cc(NS(=O)(=O)c2ccc3c(c2)CCC(=O)N3)cc(C(=O)OC)c1 | 32µM*
COC(=O)c1cc(OC)c(OC)cc1NC(=O)c1cnccn1 | -10%
CCOC(=O)N1CCN(C(=O)Cn2ncc3c2-c2ccccc2OC3)CC1 | -1%
COC(=O)c1ccc(C(NC(=O)OCc2ccccc2)/C(F)=C/[C@@H](C)C(=O)NCc2nc3ccccc3s2)cc1 (stereo partly drawn) | 4%
N#CCCCSc1nnc(-c2ccc(Cl)cc2)n1-c1ccccc1 | -4%
c1csc(CSc2nnc3sc4ccccc4n23)c1 | ?
COc1ccc(Nc2nc3ccccc3c(=O)s2)c(OC)c1 | -10%
Cc1c(-c2ccc(O)cc2)nn(-c2ccc(O)cc2)c1-c1ccc(OCCN2CCCCC2)cc1 | ?
COc1cccc(NC(=O)C2C3C=CC4(O3)C2C(=O)N(C2CC2)C4C(=O)NC2CCCCC2C)c1 (stereo not drawn) | -5%
OC1(c2ccccc2)C/C(=N\n2cnnc2)C=C1c1ccccc1 (stereo not drawn) | -2%
COC(=O)c1ccc(Oc2cc(C)nc(SC)n2)cc1 | -1%
COC(=O)C1ON2OC(C(=O)OC)C(C(=O)OC)C2C1CC(C)=O (stereo not drawn) | -5%
C=C(C)C1Cc2c(C)nn(-c3ccccc3)c2C1 (stereo not drawn) | -11%
CCN(CC(=O)NC1CCCCCC1)S(=O)(=O)c1ccccc1 | -4%

Not all compounds are listed; count on the stated rates, not on these rows.
